CSC inhib = blocks cancer stem cells. cancer stem cell-like cells viability, luminescence. inhibition, % at 7.5 µM. hit rate 1.1% among 300,000. AID 2717;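 active = mean at 75% or more and at least half the replicates too; tested in HMLE shEcad cells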;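 also: 0% = median of negative and 100% = median of positive control wells; the first replicate is given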
Env fusion inh = HIV envelope-mediated fusion inhibition; AID 651610; HeLa-JRFL Env/CEM21 cell fusion, luciferase; hit rate 1.1% among 360,000; inhibition, % at 12.3 µM;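 active = mean replicate inhibition score of at least 50 and every replicate individually at or above 50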;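 also: 0% = plate neutral controls and 100% = maraviroc near 300 nM; one replicate is shown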
MT1-MMP act inh = blocks activation of human MT1-MMP; HT1080 RFP-PRO-GFP cells, GFP/RFP ratio fluorescence, overnight; percent of plate control window, DMSO zero; hit rate 0.061% among 360,000; P50281; GFP/RFP ratio change, % at 20 µM; AID 651647;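 active = GFP/RFP ratio change of at least 30% with cell ATP level not reduced by more than half and red fluorescence within 50% of control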; also: strong numbers were not always called active
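Material: RFP-PRO-GFP reporter HT1080 cells. Dosing: single-point 20 µM compound, 1% DMSO. Controls: DMSO and RFP-L50D-GFP cell wells. Timing: cells overnight before dosing, compound overnight, 37 °C, 5% CO2. Measure: GFP/RFP fluorescence ratio.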
PABP polyA inh = PABP-poly(A) binding inhibition. PABP-poly(A) RNA binding, fluorescence polarization. inhibition, % at 35 µM. hit rate 1% among 290,000. AID 2014;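 active = 50% or more with normal probe brightness, or confirmed in later tests; about a fifth of its hits are not listed in these tables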;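 also: calls also rest on retests at 20 µM and on dose response follow-up; controls were probe without protein and protein plus probe with vehicle; some compounds called inactive have numbers as strong as hits; many hits fall short of the cut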
Yeast UUG start = yeast start codon fidelity modulation | S. cerevisiae UUG-firefly luciferase reporter, luminescence/redox ratio | AID 602363 | hit rate 0.13% among 350,000 | activity score, % at 18.7 µM;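 active = replicate mean at a twofold rise or more, about +100% in these data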;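 also: firefly luciferase made from a UUG start codon reports start codon fidelity; reporter light over untreated wells divided by growth signal over untreated wells; some hits fall short of that in this replicate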
eIF4H FP inh = inhibitors of RNA binding by human eIF4H | hit rate 0.94% among 290,000 | inhibition, % at 35 µM | AID 2012 | Q15056 | eIF4H fluorescence polarization binding assay;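 active = 50% or more with normal probe brightness, or confirmed in later tests; about a fifth of its hits are not listed in these tables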;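 also: calls also rest on retests at 20 µM and on dose response follow-up; 0% = protein and probe with vehicle and 100% = probe without protein; strong numbers were not always called active; many hits fall short of the cut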
Rce1 inh = blocks yeast Ras-converting enzyme | Q03530 | yeast membranes, quenched prenylated peptide cleavage fluorescence | calls only | hit rate 0.27% among 290,000;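 active = fall in fluorescence gain of 50% or more versus controls, with final raw signal at or below 3038400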;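 also: plate controls were neutral control wells for no effect and wells lacking membranes for full effect; tested at 10 µM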
Target sequence (Q03530 whole entry, looked up): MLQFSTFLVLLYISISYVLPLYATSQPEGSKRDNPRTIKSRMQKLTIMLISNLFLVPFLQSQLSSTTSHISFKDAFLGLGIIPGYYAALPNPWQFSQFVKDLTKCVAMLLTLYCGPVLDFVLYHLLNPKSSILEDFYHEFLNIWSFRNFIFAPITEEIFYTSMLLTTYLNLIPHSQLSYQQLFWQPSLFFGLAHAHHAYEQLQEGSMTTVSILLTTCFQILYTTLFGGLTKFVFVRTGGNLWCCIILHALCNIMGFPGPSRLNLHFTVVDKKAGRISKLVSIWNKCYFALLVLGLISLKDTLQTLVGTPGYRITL
eIF4H FP inh retest = further read-out of eIF4H FP inh, marked with its call; inhibition, %; compound at 20 µM; confirmation average;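 mean of two retest wells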
PABP polyA inh retest = recorded beside PABP polyA inh, whose call it bears; inhibition, %; compound at 20 µM; confirmation repeats;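 mean of two retest wells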
MT1-MMP act inh RFP = second read-out of MT1-MMP act inh, no call of its own (marks repeat the call); RFP signal change, %; measured here: RFP expression control read;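 0 = vehicle wells; hits needed this value within 50% of zero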
The depositor's hits bear a star; i = inactive; x = no result given. An excerpt (hit frequency here may not be typical).

SMILES	CSC inhib	Env fusion inh	MT1-MMP act inh	MT1-MMP act inh RFP	PABP polyA inh	Yeast UUG start	eIF4H FP inh	Rce1 inh	others
Cc1n[nH]c(=S)n1Cc1ccccc1	12	15	4	7	-11	-11	-6	i
Cc1ccc([N+](=O)[O-])cc1S(=O)(=O)N1CCCN(C)CC1	-5	-6	-2	1	-4	-12	-14	i
CNC(=O)c1cccc(NC(=O)c2cc(-c3ccccc3)nc3c2cnn3C(C)C)c1	32	x	10	-8	x	-6	x	x
CS(=O)(=O)c1ccccc1C(=O)Nc1cc(Cl)ccc1-n1cncn1	-6	-9	2	6	x	-18	x	i
c1cn2cc(CSC3CCCCC3)nc2s1	x	x	-3	0	15	-27	1	i
COc1ccc(Cl)cc1N(C(=O)c1ccco1)C(C(=O)NC1CCCC1)c1ccco1 (configuration not stated)	-2	-8	x	x	1	x	4	i
S=C(NCCc1c[nH]c2ccccc12)NC1CCCC1	5	-6	1	5	2	x	-11	i
O=C(NCCN1CCOCC1)/C(=C\c1ccc(Br)cc1)NC(=O)c1cccs1	-13	11	2	6	13	x	2	i
CCN(CC)c1nc(C)c(C(=S)Nc2cc([N+](=O)[O-])ccc2Cl)s1	-2	-5	-128	-6	14	x	-9	i
CCC(c1nnnn1Cc1ccc(F)cc1)N1CCN(C2CCCCC2)CC1 (configuration not stated)	x	x	-5	2	6	-9	10	i
CCC(C)C(NC(=O)c1ccccc1)C(=O)N1CCN(C(=O)c2ccccc2)CC1 (configuration not stated)	x	-13	0	3	x	-7	x	x
N#CCCN(C(=S)Nc1ccc(Cl)c(Cl)c1)C1CCCCC1	x	17	-2	2	x	-20	x	x
COc1ccc(-c2nc(Cn3c(SCc4cccc(F)c4)nc4ccncc43)c(C)o2)cc1OC	82*	14	2	-3	1	-4	6	i
Cc1ccc(-c2nc(C#N)c(NCc3ccco3)o2)cc1	-1	x	4	0	-9	-18	6	i
CN(C)CCCNc1oc(-c2ccc(Cl)cc2)nc1S(=O)(=O)c1ccccc1	13	-19	2	6	x	7	x	x
O=C(Nc1ccc(Cl)cc1)Nc1nc(-c2ccccc2O)cs1	28	-4	8	-13	2	1	-7	i
COc1cc(OC)cc(-c2c(C#Cc3ccsc3)c3cc(-c4ccc(OC)nc4)ccc3n2C)c1	15	-2	-1	4	x	-10	x	x
O=C(Nc1ccccc1C(F)(F)F)c1cc(-c2ccco2)on1	0	-23	0	3	7	-21	-2	i
CCN1CCN(S(=O)(=O)c2ccc(Cl)c(C(=O)NC3CCCCC3)c2)CC1	-21	-3	-1	-1	x	-5	x	i
O=C1c2ccccc2NC(c2cccc(O)c2)N1O (configuration not stated)	6	-18	6	5	72	-2	6	i	eIF4H FP inh retest=-6;PABP polyA inh retest=14
CCCCN=C1NN=C(c2cc3ccccc3o2)CS1	-1	-23	-5	1	-6	x	-6	i
CCOc1ccc(NS(=O)(=O)c2ccc(Cl)c(N=Nc3c(O)[nH]c(=S)[nH]c3=O)c2)cc1Br	x	-2	6	3	x	-15	x	x
COc1cccc(N/C=C/C(=O)c2ccc(OC)c(OC)c2)c1	25	-96	0	-2	8	2	-4	i
COc1cc(/C=N/NC(N)=O)ccc1OC(=O)c1cccs1	-4	-26	-3	3	-12	x	0	x
CCCCCOc1ccc(C(=O)CCC(=O)Nc2ccc(NC(C)=O)cc2)cc1	x	-1	1	4	8	-8	-2	i
NC(=O)c1cc(S(=O)(=O)NCCc2ccccc2)cs1	-9	-7	3	-1	2	-17	-1	i
CCc1ccc(NC(=O)N(Cc2ccco2)C(C)c2cccs2)cc1 (configuration not stated)	10	-14	7	4	-3	-3	0	i
Cc1c(/C=N\NC(=O)C2(C)CC2(Cl)Cl)cnn1C (configuration not stated)	-4	x	-2	10	0	-4	0	i
Cc1cccc(-c2n[nH]c(=S)n2-c2ccccc2)c1[N+](=O)[O-]	-13	16	-2	-3	-9	x	-7	i
O=C(CN1CCN(c2ccc(O)cc2)CC1)Nc1cc(S(=O)(=O)N2CCOCC2)ccc1Cl	9	x	-6	-8	x	x	x	i
COc1ccc(CCNC(=O)COC(=O)c2ccco2)cc1OC	-4	-18	5	10	3	-11	-7	i
CCOC(=O)C(=O)N(C)c1c(CC)nc2c(OCc3ccc(OC(F)F)cc3)cccn12	x	2	-4	-1	x	-21	x	x
O=C(N/N=C/c1ccc(Sc2ccccn2)o1)c1cc2ccccc2cc1O	-5	x	4	5	7	-18	15	i
COC(=O)C1CCN(C(=O)CSc2ccccc2)CC1	7	14	-3	-3	6	x	-2	i
O=C1c2ccccc2C(=O)N1Nc1ccccc1	24	x	-1	8	-2	x	-4	i
COCC(C)n1c(SCC(=O)Nc2sccc2C(N)=O)nc2ccccc2c1=O (configuration not stated)	-9	13	1	-4	x	3	x	x
NC(=O)C1=C[C@H](c2coc3ccccc3c2=O)C[C@H](OCCCCO)O1	-2	34	3	4	-4	-8	-5	i
Cc1cc(C(=O)N/N=C2\CC(=O)c3ccccc32)c(C)n1-c1ccccc1	2	-58	-1	3	10	x	2	i
CCOc1nc(Nc2ccc([N+](=O)[O-])cc2)nc(NC(C)(C)C)n1	15	-1	1	-5	16	-15	2	i
Cc1nn(C)c(C)c1CN(C)S(=O)(=O)c1ccc2ccccc2c1	5	72*	5	-16	3	-17	4	x
Cc1cccc(NC(=O)C(=O)N/N=C/c2ccncc2)c1	x	-87	-1	4	4	x	-4	i
COc1ccc(NC(=O)Nc2cc(C(=O)O)ccc2N2CC3CC(C2)c2cccc(=O)n2C3)c(OC)c1 (configuration not stated)	1	2	2	2	7	-6	5	i
CNS(=O)(=O)c1cccc(C(=O)OCC(=O)NC(C)CCc2ccccc2)c1 (configuration not stated)	10	12	0	1	6	-6	-7	i
COc1ccc(NC(=O)CCc2ccccc2)cc1NC(=O)c1ccco1	-1	4	1	-2	2	-11	-4	i
O=C(NCCc1ccccc1F)C1CCC(=O)N(Cc2ccccc2F)C1 (configuration not stated)	-8	5	5	4	-6	-1	-22	i
COc1ccccc1N=c1scc(-c2ccc3c(c2)NC(=O)CO3)n1CC1CCCO1 (configuration not stated)	-5	x	0	-7	-4	1	4	i
CSc1nnc(-c2ccc([N+](=O)[O-])cc2)o1	-1	-6	5	7	3	-12	-9	i
COc1cc(OC)cc(C(=O)NC(c2ccccc2)c2ccccc2)c1	-12	4	-8	-5	-5	-8	-2	i
Cc1ccc(N(C(=O)CNC(=O)c2ccco2)C(C(=O)NC2CCCCC2)c2ccncc2)cc1F (configuration not stated)	x	26	1	7	2	-8	-10	i
Cc1ccc(S(=O)(=O)NCC(=O)N(CC(=O)NCC2CCCO2)Cc2ccco2)cc1 (configuration not stated)	-8	13	1	2	-5	-1	0	i
O=C(CN1CCCc2ccccc21)NCCc1ccc(F)cc1	-14	8	-37	1	13	x	-3	i
CC(Sc1cnc2ccccc2n1)C(=O)O (configuration not stated)	11	-13	3	8	10	-8	-11	i
COc1ccc(S(=O)(=O)N2CCCCCC2)cc1C(=O)N(CC(C)C)C1CCS(=O)(=O)C1 (configuration not stated)	x	-2	2	5	x	x	x	i
O=C(COc1c(F)c(F)cc(F)c1F)NC(=O)NC1CCCC1	-9	-1	0	3	-6	-7	7	i
COCCCNC(=S)Nc1c(C)cc(C)cc1C	-15	6	0	-3	11	x	-1	i
Cc1ccccc1C(=O)Nc1cc(C(F)(F)F)ccc1-n1cncn1	-6	x	-4	0	x	-5	x	x
Cc1ccc(SCCC(=O)OCC(=O)Nc2ncc(Cl)cc2Cl)cc1	-1	-20	-6	4	8	-16	10	i
Cc1cc(C)c(NC(=O)C2c3ccccc3Oc3ccccc32)c(C)c1	x	9	-4	5	-3	x	4	i
COc1ccc(-c2csc3nc(C)nc(N4CCC(C)CC4)c23)cc1OC	12	7	3	-4	0	x	2	i
O=C(NCc1cccnc1)c1cc2ccccc2oc1=O	-4	x	5	-1	-6	-11	9	i

More structures follow.
SMILES	CSC inhib	Env fusion inh	MT1-MMP act inh	MT1-MMP act inh RFP	PABP polyA inh	Yeast UUG start	eIF4H FP inh	Rce1 inh	others
CC(C(=O)N1CCOCC1)c1ccccc1 (configuration not stated)	0	19	-3	1	x	-11	x	x
COc1ccc(CCNC(=O)c2cc(CC(C)C)on2)cc1OC	-7	24	1	-5	1	-8	0	i
COc1ccc(N(CC(=O)Nc2cc(C)ccc2C)S(=O)(=O)c2ccccc2[N+](=O)[O-])c(OC)c1	13	0	-4	-11	-2	x	-3	i
Cc1ccc2[nH]cc(C(=O)CN3CCN(c4ccccc4F)CC3)c2c1	-6	x	2	0	-2	-4	-6	i
c1ccc2sc(Sc3ncnc4sccc34)nc2c1	13	15	-9	-3	-9	x	-9	x
O=C(CSc1nc2[nH]c(=O)cc(O)c2s1)Nc1ccc(Br)cc1	-8	3	8	3	x	-10	x	x
COc1ccc(C(O)Cn2ccsc2=NC(C)=O)cc1 (configuration not stated)	22	-20	-2	-2	1	2	-15	i
Cc1ccc(NC(=O)CN2CCCC2)cc1Br	-11	0	5	2	1	5	-7	i
N#Cc1nc(-c2cccs2)oc1NCc1ccccc1Cl	-8	x	2	-7	7	-10	11	i
CC(C)(C)OC(=O)N1CCC(C(=O)Nc2cccc(C(=O)N3CCOCC3)c2)CC1	-14	3	-1	1	x	5	x	x
Cc1ccsc1C(=O)Nc1cc(C(C)(C)C)nn1-c1ccccc1	-4	x	2	2	-6	x	0	i
Nc1c(C(=O)Nc2ccc(Cl)c(Cl)c2)sc2nc(-c3cccnc3)ccc12	-15	20	x	x	-10	x	-2	i
Cc1ccccc1NC(=O)c1cc(S(=O)(=O)N2CCOCC2)cn1C	-2	18	-2	2	-6	8	-5	i
CCCCCSc1nc(O)cc(=O)[nH]1	4	x	1	2	9	0	4	i
Cc1ccc(C)c(NC(=O)COC(=O)c2ccc[n+]([O-])c2)c1	7	8	0	1	x	-13	x	x
COc1ccc(-n2nc3c(N4CCC(C(=O)NCc5ccccc5)CC4)nnc(C)c3c2C)cc1	-11	4	3	2	-8	-4	-3	i
CC(C)C[C@H]1CNC(=S)N1C[C@H]1CCCN1C[C@H](Cc1ccccc1)N1C[C@H](Cc2ccc(O)cc2)N(CCc2ccccc2)C1=S	x	-21	-3	-13	x	-24	x	x
Cc1cccc(Cn2cnc3c(NS(C)(=O)=O)c(C)c(C)cc32)c1	1	-51	-3	-4	-9	x	4	i
O=C(CN1C(=O)c2ccccc2S1(=O)=O)c1ccc(F)c(F)c1	-7	41	1	2	-5	-29	-11	i
CC(C)NC(=O)C1Cc2c(-c3ccc(Cl)cc3)ccnc2O1 (configuration not stated)	x	20	-2	-2	x	-23	x	x
Cc1cc2ccccc2c(=O)n1CC(=O)N(C)c1ccc(F)cc1	-10	-30	-1	0	-3	-8	5	i
CCOCCn1c(=NC(=O)CSCC(=O)Nc2cc(C)on2)sc2cc(OC)ccc21	-15	-4	0	-1	-1	3	-11	i
Cc1nnc(NN2CCOCC2)[nH]c1=O	-6	30	-2	-5	2	-8	-4	i
COc1cc2ncnc(NCCc3ccccc3)c2cc1OC	40	24	6	-11	9	x	11	i
